# ugtP null kill: kills S. aureus RN4220 lacking UgtP | hit rate 0.54% among 330,000 | growth inhibition, % (concentration not given with the values) | S. aureus RN4220 ugtP deletion, OD600 growth, 16 h; some inactives read as strong as hits;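 active = z-score under -3 and OD600 up to 0.15 on both plates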;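 note: plate controls were untreated wells for no effect and antibiotic for full effect; wells of about 80 µL received 100 nL stock; the first replicate is given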
# Bead autofluor: counter-screen for toxin protease inhibitors: compound fluorescence; compound autofluorescence counterscreen, microsphere flow cytometry; active compounds read high; fluorescence intensity (test concentration not listed); hit rate 3.1% among 360,000; AID 624483;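 active = at least 3 SD above the mean of all compounds, about 16000 in these data; inconclusive = too few beads counted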;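 note: 100 nL of 1 mM stock went into each well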
# BJeLR viability: BJeLR cell viability loss. inhibition, % (concentration not given with the values). BJeLR (HRASV12) viability, CellTiter-Glo ATP luminescence, 48 h; reference of the scale not given here. hit rate 0.17% among 300,000;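 active = replicate mean above 50%; inconclusive = above 50% but judged a plate artefact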;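 note: 50 nL library stock added to about 25 µL; numbers are from one replicate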
# PrP UTR inh: suppresses PrP 5' UTR mRNA reporter expression; AID 488862; inhibition, % (no concentration beside the values); cell-based PrP 5' UTR mRNA reporter, plate reader; hit rate 0.35% among 340,000;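 active = every replicate at 50% or more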;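 note: 0 = median of the neutral control wells; tested in H4 reporter cells; numbers are from one replicate; inactives centre near -14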
# RN4220 kill: S. aureus RN4220 growth inhibition; OD600, 16 h; inhibition, % (test concentration not listed); hit rate 0.33% among 330,000;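 active = z-score of -3 or lower and OD600 up to 0.18 on both plates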;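 note: plate controls were untreated cells for no effect and reference antibiotic for full effect; stock transfer was 100 nL into about 80 µL; one replicate is shown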
# Mtb hypoxia rep: inhibitors of hypoxia-regulated fluorescent reporter in Mycobacterium tuberculosis. M. tuberculosis hypoxia-regulated fluorescent reporter, fluorescence. fluorescence inhibition, % (concentration not given with the values). hit rate 0.1% among 300,000. AID 1159583;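 active = 35 to 45% if threefold the growth effect, above 45% if 1.5-fold the growth effect; inactive = the rest, general growth blockers included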;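 note: wells of about 50 µL received 100 nL stock; 0% = vehicle wells and 100% = reference inhibitor wells; whole bacteria with a GFP reporter of the hypoxia response; strong numbers were not always called active; many hits fall short of the cut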
# Mtb hypoxia rep growth: further read-out of Mtb hypoxia rep, marked with its call; growth inhibition, %; measured here: M. tuberculosis growth (absorbance);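 0% = vehicle and 100% = reference antibiotic; read after six days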
# An asterisk follows results filed as active; ? = inconclusive; / = no result given.
SMILES,ugtP null kill,Bead autofluor,BJeLR viability,PrP UTR inh,RN4220 kill,Mtb hypoxia rep,Mtb hypoxia rep growth
Cc1ccc2cc(CN(c3ccc(C)c(C)c3)S(C)(=O)=O)c(=O)[nH]c2c1,0,4154,0,-11,3.0,3,7
CCOc1ccc(CN2CCNC(=O)C2CC(=O)N(C)C2CCCCC2)cc1 (stereo unspecified),7,4570,2,-31,3.4,3,-4
CC(NC(=O)C1CCC(=O)N1Cc1ccccc1Cl)c1ccccc1 (stereo unspecified),5,4075,6,-17,1.4,-7,5
COc1cc(/C=C/CN2CCC(Oc3ccc(C(=O)N4CCCC4)cc3)CC2)ccc1O,15,4587,3,-9,3.3,2,0
COc1cccc(C(=O)NC(=S)Nc2ccccc2N2CCCC2)c1,91*,2549,7,-29,-3.3,13,0
CC(=O)C(Cc1ccc(Cl)nc1)Cc1ccc(Cl)nc1,2,4300,17,-38,-0.7,10,0
CC(C)CN(C(=O)Cn1c(C(F)(F)F)nc2ccccc21)C1CCS(=O)(=O)C1 (stereo unspecified),5,6191,-5,-18,1.9,7,-2
CC(=O)Nc1ccc(-c2sc(Nc3cccc4ccccc34)n[n+]2-c2ccccc2)cc1,/,5023,0,-4,/,/,/
COc1ccc(/C=C2\C(=N)N3N=C(CC(=O)N4CCOCC4)SC3=NC2=O)cc1,/,3837,7,-18,/,/,/
Cc1cccn2c(=O)c(/C=C(\C#N)C(N)=O)c(N3CCN(c4cccc(Cl)c4)CC3)nc12,-29,3728,-3,-7,2.7,-9,-1
O=C(Nc1cc2c(cc1C(=O)O)OCCCO2)c1ccc(F)cc1F,5,3851,3,-28,9.3,8,-3
Cc1ccc(S(=O)(=O)N2CCOCC2)cc1C(=O)Nc1ccc2c(c1)OCCO2,-2,2723,/,-15,0.5,-1,3
COc1cccc(NC(=O)CSc2nc3c(sc4ccccc43)c(=O)n2CCN(C)C)c1,-2,3301,16,4,1.8,-6,-10
O=S(=O)(c1cc(Cl)ccc1Cl)N1CC2CCCN2c2ccc(C(F)(F)F)cc21 (stereo unspecified),1,10246,0,-28,-9.9,10,3
Cc1onc(-c2ccccc2)c1C(=O)NCc1ccc2c(c1)OCO2,4,7594,6,-1,9.1,6,6
COC(=O)C1C2C=CC3(CN(Cc4ccco4)C(=O)C13)O2 (stereo unspecified),1,5953,-2,-15,2.5,10,5
C=CCN(c1ccc(C(=O)OC)cc1)S(=O)(=O)c1ccccc1,-2,2143,1,-4,6.0,-1,0
COc1ccc(C(=O)NC(=S)Nc2ccccc2N2CCOCC2)cc1Br,81,2428,-4,-28,4.8,4,-3
Cc1ccc(Cn2c(C3CCCN3c3nc(-c4cc(Cl)c(N)c(Cl)c4)cs3)nc3cc(Cl)c(Cl)cc32)cc1 (stereo unspecified),-1,3917,-6,-29,1.3,14,7
CCOC(=O)c1cc(NC(=O)N2CCCCC2)c(C)nc1C,1,2681,-1,-17,0.7,9,9
COC(=O)Nc1ccc(S(=O)(=O)N2CCCC(C(=O)N3CCOCC3)C2)cc1 (stereo unspecified),0,4594,2,-23,4.6,-11,5
COc1cc(/C=C2\SC(=S)N(C(C(=O)O)c3ccccc3)C2=O)cc(OC)c1OC (stereo unspecified),12,2516,-4,-12,6.0,1,2
CCOc1ccc(OCCC(=O)OCC(=O)Nc2cc(S(=O)(=O)N3CCOCC3)ccc2OC)cc1,7,?,/,-20,2.6,8,5
O=C(NCC1CCCCC1)C1CCCN(C(=O)NC2CCCCC2)C1 (stereo unspecified),11,?,-2,0,5.4,15,-5
CC(C)CC(=O)Nc1nnc(SCC(=O)NCc2ccco2)s1,13,2395,0,-16,4.9,-1,11
O=C1CCCN1c1ccc(C(=O)N(Cc2nnc(-c3ccc(Cl)cc3)o2)C2CC2)cc1,2,/,-2,-6,3.1,-6,-1
O=C(COc1ccc([N+](=O)[O-])cc1)NNC(=O)c1cccnc1,3,5431,-10,2,2.5,-2,-4
CN(C)c1ccc(CNCC2CCCO2)cc1 (stereo unspecified),2,3788,5,-23,0.1,4,3
CCC(C)COC(c1ccccc1)(c1ccccc1)C(Oc1nc(C)cc(C)n1)C(=O)O (stereo unspecified),40,3236,-9,-11,1.9,-2,-11
Cc1ccc(Sc2ccc(CN3CCCCC3)cc2[N+](=O)[O-])cc1,17,3266,0,-11,-3.1,14,17
COc1cc(-c2nc(Cc3c(F)cccc3Cl)no2)cc(OC)c1OC,5,10835,-11,-19,0.3,-6,12
CCOC(=O)c1nn(-c2ccc(Cl)cc2)c2nc(Nc3ccccc3)cc(=O)n12,-21,2504,0,-18,-5.1,14,1
Cc1ccc(NC(=O)CCC(=O)c2cccs2)cc1,6,4439,-4,-12,3.5,3,-4
NC(=O)Cn1c(-c2nonc2N)nc2ccccc21,-8,4768,3,-24,-1.4,1,13
O=C(c1cc2ccccc2[nH]1)N1O[C@@H]2C=C[C@H]1C2,-1,3933,/,-30,5.7,3,2
CNC(=O)N(O)C1N(C)C(=O)N(CC(=O)OC)C1(C)C (stereo unspecified),-1,3216,-8,14,-0.1,3,-4
CCOC(=O)C1CCCN(Cc2nc3ccc([N+](=O)[O-])cc3c(=O)n2-c2ccc(OC)cc2OC)C1 (stereo unspecified),2,4116,0,/,2.0,5,0
CC(C)CC(=O)Nc1nnc(SCC(=O)NCc2ccc3c(c2)OCO3)s1,0,4252,0,-7,0.4,-1,2
CCC(=O)Nc1ccc(NC(=O)c2cccc(OC)c2)nc1,5,2266,1,-69,3.0,15,18
CSCCC(NC(=O)c1cccc(S(=O)(=O)N2CCOCC2)c1)C(=O)Nc1ccc(F)cc1 (stereo unspecified),1,10702,11,-10,3.8,-2,-2
O=C(COC(=O)c1cc([N+](=O)[O-])ccc1N1CCOCC1)Nc1c(Cl)cccc1Cl,-2,?,-12,-32,2.9,8,4
CC(C)(C)CC(C)(C)NC(=O)Nc1cccc([N+](=O)[O-])c1,-8,4295,11,/,1.5,2,4
O=C(COC(=O)CSc1ccc2ccccc2c1)Nc1ccccc1OC(F)F,-4,2008,-1,8,6.5,13,0
COc1ccc(C(=O)NCCNC(C)=O)cc1S(=O)(=O)NCc1ccc(Cl)cc1,3,19992*,4,-19,2.4,17,10
COc1ccccc1CNC(=O)CSc1ccsc1[N+](=O)[O-],-3,2094,-2,-64,6.8,11,0
Cc1cccc(NC(=O)c2cc(=O)c3ccccc3o2)c1,14,3453,-6,-19,7.9,17,13
COc1cccc(C(=O)Nc2ccc(NC(=O)C3CCCCC3)nc2)c1,4,5104,-8,-24,-0.9,-9,4
Cc1cccc2c(=O)cc(C)n(Cc3ccccc3)c12,22,1956,2,-7,12,5,2

# Compound profiles, from the list above.
# CCC(=O)Nc1ccc(NC(=O)c2cccc(OC)c2)nc1 across the screens: ugtP null kill = 5; Bead autofluor = 2266; BJeLR viability = 1; PrP UTR inh = -69; RN4220 kill = 3.0; Mtb hypoxia rep = 15; Mtb hypoxia rep growth = 18
# Cc1cccc2c(=O)cc(C)n(Cc3ccccc3)c12 across the screens: ugtP null kill = 22; Bead autofluor = 1956; BJeLR viability = 2; PrP UTR inh = -7; RN4220 kill = 12; Mtb hypoxia rep = 5; Mtb hypoxia rep growth = 2

# (list continues)
SMILES,ugtP null kill,Bead autofluor,BJeLR viability,PrP UTR inh,RN4220 kill,Mtb hypoxia rep,Mtb hypoxia rep growth
Cc1ccc(CNC(=O)c2cc3c(s2)CS(=O)(=O)C3)cc1,9,5687,21,-4,-3.4,16,1
COc1ccc(/C(C)=N/NC(=O)C2CC2)cc1,/,4268,-18,8,/,/,/
CC(=O)Nc1ccc(NC(=O)C2CC(=O)N(Cc3ccco3)C2)cc1 (stereo unspecified),4,5241,/,-40,0.7,-3,-14
CC(=O)Nc1ccc(S(=O)(=O)N2CCN(c3cc(C)nc4ccccc34)CC2)cc1,10,4777,2,-30,6.9,/,/
CN(C)C=Nc1c(C#N)nnn1Cc1ccccc1,3,/,/,/,5.2,17,6
C=CCN1C(=O)C2C3C=CC(C2C1=O)C1C2C(=O)N(CC=C)C(=O)C2C31 (stereo unspecified),1,4619,-5,-5,3.3,5,-3
Cc1ccc(NC(=O)CS(=O)CC(=O)N2CCN(c3ccccc3)CC2)cc1 (stereo unspecified),12,3654,2,-15,-1.2,-2,-6
CCN1CCN(S(=O)(=O)c2ccc(Cl)c(C(=O)Nc3ccccc3N3CCCCC3)c2)CC1,7,?,-4,-2,0.5,1,10
N#CCC(=O)Nc1ncn(Cc2ccccc2Cl)n1,0,7729,-5,-16,3.8,9,7
NC(=O)CC(CC(=O)OCc1ccccc1)c1ccccc1 (stereo unspecified),-3,3493,-11,-9,0.9,-3,-2
COc1ccc(C(=O)NCCc2c[nH]c3ccc(OC)cc23)cc1,5,3588,0,-13,1.0,14,9
COc1ccc(-c2cc3ccccc3n2CC(O)Cn2nc(C)cc2C)cc1 (stereo unspecified),0,3026,-11,4,3.6,/,/

# Three structures already listed, arranged by count of non-hydrogen atoms, low to high.
SMILES,ugtP null kill,Bead autofluor,BJeLR viability,PrP UTR inh,RN4220 kill,Mtb hypoxia rep,Mtb hypoxia rep growth
CC(=O)C(Cc1ccc(Cl)nc1)Cc1ccc(Cl)nc1,2,4300,17,-38,-0.7,10,0
CCOc1ccc(CN2CCNC(=O)C2CC(=O)N(C)C2CCCCC2)cc1 (stereo unspecified),7,4570,2,-31,3.4,3,-4
CCC(C)COC(c1ccccc1)(c1ccccc1)C(Oc1nc(C)cc(C)n1)C(=O)O (stereo unspecified),40,3236,-9,-11,1.9,-2,-11

# The results go on:
SMILES,ugtP null kill,Bead autofluor,BJeLR viability,PrP UTR inh,RN4220 kill,Mtb hypoxia rep,Mtb hypoxia rep growth
O=C(N/N=C/c1ccco1)c1ccc2nc[nH]c2c1,/,3746,-2,-21,/,/,/
COc1cccc(C2C(C#N)=C(C)NC3=C2C(=O)CC(C)(C)C3)c1 (stereo unspecified),10,2135,-9,-27,6.5,4,1
O=C(/C=C\NCC(=O)c1ccccc1)c1ccc2ccccc2c1,-4,2344,-4,-34,5.6,-7,-9
O=C(NCC1CCCO1)/C(=C\c1ccccc1F)NC(=O)c1ccccc1 (stereo unspecified),8,3002,-5,-1,4.2,7,1
CCCC(=O)Nc1ccc(NC(=O)c2cccs2)cn1,2,3638,3,-18,0.6,11,0
O=C(NNC(=O)c1cc(Cl)nc2ccccc12)c1ccccc1F,13,?,-6,-19,0.7,3,-5
Cc1cc(C)cc(NC(=O)CSc2nccn2Cc2ccco2)c1,1,5758,-13,-26,-1.3,3,12
O=c1c2ccccc2[nH]c(=S)n1CCCN1CCOCC1,6,2882,1,-27,2.0,/,/
Cc1ccccc1NS(=O)(=O)c1ccc2c3c(cccc13)C(=O)N2C,-15,6720,-5,-8,5.7,4,0
CCOc1ccccc1NS(=O)(=O)c1ccc2c(c1)NC(=O)CCS2,-6,5508,6,8,2.9,2,11
NC(=O)Cn1cc(C=NNS(=O)(=O)c2ccccc2)c2ccccc21,5,/,/,/,-1.5,4,-2
CCOc1ccc(CCNC(=O)C2CCCN2C(=O)OCc2ccccc2)cc1OCC (stereo unspecified),7,2777,2,-4,2.0,1,3
C=C(C)Cn1c(N2CCN(CC)CC2)nc2c1c(=O)[nH]c(=O)n2C,9,4602,-12,-8,0.5,/,/
O=C(COc1ccc(Cl)cc1Cl)N1CCN(c2ccccn2)CC1,2,3739,31,-37,1.6,5,1
CC1CCC(N2CCN(S(=O)(=O)Cc3ccccc3)CC2)CC1 (stereo unspecified),2,5637,-8,-10,2.2,1,6
COc1ccc(CNn2c(-c3cccs3)nc3ccccc3c2=O)cc1OC,-15,4800,1,-12,-2.6,0,0
COc1ccc(C(=O)CSc2nc(C(C)(C)C)nc3ccccc23)cc1,34,4726,-12,-14,-0.8,-1,1
O=C1CCCC/C1=C\Nc1ccc(C(=O)O)c(O)c1,/,3272,3,-4,/,/,/
CCC1CCCCN1C(=O)CSc1n[nH]c(N)n1 (stereo unspecified),5,3698,/,-7,2.3,2,5
CC(=O)N1CCc2cc(Br)cc(S(=O)(=O)N3CCN(C(=O)c4ccco4)CC3)c21,6,4424,-2,-5,1.1,/,/
Cc1nnc(SCc2nc3ccccc3[nH]2)s1,3,3167,-5,-10,6.0,-6,6
OCC[C@@H]1C[C@H](O)[C@@H](O)[C@]2(CCc3ccccc3CO2)O1,/,4201,-11,-14,/,/,/
O=c1cc(-c2ccc(O)cc2)oc2ccccc12,-10,5712,-2,-30,2.7,/,/
COc1ccc(CCNC(=O)Cn2cccc2C(=O)c2ccccc2)cc1OC,/,1893,-16,-20,/,/,/
CCOC(=O)C(CCc1nnc(N)s1)C(=O)OCC,-4,8117,-10,-6,4.0,-7,3
